# Assay outcomes from PubChem BioAssay.
# miR-21 reporter = raises the signal of a miR-21 reporter; HeLa miR-21 FLuc reporter, luciferase, 48 h; Potency, µM (series often up to 38.3 µM), without a hit: at the top dose reporter change, positive = more light; AID 2288; 340,000 tested, under 10 active; active = well fitted rising curve with a large enough effect; inconclusive = small, poorly fitted or top-dose-only effect; inactive = no such curve, though single readings can be large or run the other way;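 note: % of control where 0% means no effect; miR-21 action dims this reporter so a rising signal means less miR-21 action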
#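 HeLa cells stably expressing CMV-driven firefly luciferase with a downstream miR-21 binding sequence, endogenously expressing miR-21, were treated with titrations (up to about 40uM final) for 48 hours at 37 degree Celsius. Luciferase luminescence was read after lysis.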
# Rango dissoc inh = prevents RanGTP from dissociating the Rango-importin beta complex. 0.071% of 340,000 active. AID 540253. Biochemical FRET Rango-importin beta, RanGTP-induced dissociation. O95149+P62826. Potency, µM (series often up to 46.1 µM), without a hit: at the highest dose activity change, negative = inhibition; active means falling FRET ratio curve, often poorly fitted, with flat reads before Ran was added; inconclusive means other falling curves, or compound fluorescence or quenching; inactive means flat or rising ratio curve;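 note: potency is the fitted concentration of half-maximal effect; % of control where 0% means no effect; nearly all actives have a fitted effect of over 45% in size; -100% = wells without RanGTP and RCC1; the record marks most hits as doubtful in a second field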
#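 Two FRET readings bracket the reaction: one 5 min after compound meets Rango–importin beta, another 45 min after RanGTP-RCC1 (0.6 uM Ran, 0.2 uM RCC1, 2 mM GTP) is added. Only the second defines inhibition.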
# Rango complex inh = Rango-importin beta binding inhibition. Q14974. Rango CFP/YFP FRET sensor + importin beta, 45 min. Potency, µM (series often up to 92.2 µM), inactives show top-dose inhibition of complex formation. 0.031% of 340,000 active; active = rising FRET ratio curve, often small or poorly fitted; inconclusive = mostly compound fluorescence or quenching in the first reads; inactive = flat curves in all reads;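 note: potency is the fitted concentration of half-maximal effect; 0% = DMSO wells and 100% = buffer wells lacking importin beta; nearly all actives have a fitted effect of over 15% in size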
#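 FRET biosensor Rango (snurportin 1 IBB between N-terminal EYFP and C-terminal Cerulean), 50 nM in PBS/1 mM DTT/0.02% Tween-20/0.1% BSA, preincubated 5 min RT with compound; 0.125 microM importin beta added, 45 min RT, CFP/YFP FRET ratio read.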
# GLA inh pH 4.5 = blocks human alpha-galactosidase A at pH 4.5; P06280; purified enzyme, 4-MU-alpha-Gal fluorescence, pH 4.5; activity change, negative = inhibition, % at 105 µM; 230,000 tested, under 10 active; AID 1467; inconclusive = small, poorly fitted or top-dose-only inhibition, or a rising curve; inactive = flat fitted curve, though single readings scatter; no compound was filed as active;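 note: 0% = full activity with enzyme and -100% = basal without enzyme; dose as in the result columns while the protocol names 77 µM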
# Target sequence (P06280 whole entry, looked up): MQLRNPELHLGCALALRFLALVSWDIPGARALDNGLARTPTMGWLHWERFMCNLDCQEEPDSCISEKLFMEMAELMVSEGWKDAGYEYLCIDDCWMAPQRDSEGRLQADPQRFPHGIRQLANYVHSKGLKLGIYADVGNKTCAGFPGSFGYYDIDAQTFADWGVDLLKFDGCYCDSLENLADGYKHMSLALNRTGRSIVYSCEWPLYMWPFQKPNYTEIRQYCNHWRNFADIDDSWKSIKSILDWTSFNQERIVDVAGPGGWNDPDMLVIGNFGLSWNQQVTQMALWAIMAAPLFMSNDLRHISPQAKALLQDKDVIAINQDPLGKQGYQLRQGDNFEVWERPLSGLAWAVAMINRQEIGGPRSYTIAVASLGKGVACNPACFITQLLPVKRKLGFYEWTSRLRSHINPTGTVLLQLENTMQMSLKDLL
# Starred values were filed as active, the others as inactive; ? = inconclusive; · = not tested or not shown; & = joins results of further samples; [ ] = another dose, or the depositor's remark. Not all compounds are listed, so the mix of outcomes need not match the whole.
Compound	Rango complex inh	miR-21 reporter	GLA inh pH 4.5	Rango dissoc inh
CS(=O)(=O)N(CC(=O)NCc1ccc2c(c1)OCO2)c1ccc(Cl)cc1	4.3%	-22.4%	-4.9	5.0%
CC(C)NC(=O)c1cc(-c2ccc3c(c2)OCO3)on1	0.3%	-19.9%	·	-7.1%
C=CCn1c(SCC(=O)c2ccc(Br)cc2)nnc1C(C)NC(=O)Cc1ccc(OC)cc1 (stereo unspecified)	-2.3%	-0.5%	-4.0	-21.1%
COC(=O)c1c(-c2ccc(SC)cc2)sc2ccc(OC)cc12	0.7%	·	·	0.1%
COc1cc(/C=N\NC(=O)c2ccc(Cn3cc(Br)c([N+](=O)[O-])n3)o2)cc(OC)c1O	-0.4%	3.9%	-16.6	10.1%
CCCn1c(C(C)Nc2nc(-c3ccc(C)cc3)cs2)nc2ccccc21 (stereo unspecified)	0.5%	-0.1%	·	0.8%
O=C(N/N=C/c1ccc(N2CCOCC2)cc1)c1ccncc1	0.9%	·	·	1.6%
S=c1[nH]nc(COc2ccccc2)n1/N=C/c1cccc(Cl)c1Cl	-0.1%	-1.3%	·	8.1%
Cc1cc(S(=O)(=O)NC2CCCCC2)c(C)s1	0.5%	-8.7%	-3.6	2.9%
CCOC(=O)Cc1csc(NC(=O)COc2ccccc2)n1	-0.6%	-5.0%	-2.1	-3.5%
O=C(CSc1ccccc1)Nc1ccccc1C(=O)O	-2.7%	-41.4%	6.9	-5.8%
O=C(CCSc1nc(-c2ccco2)cc(C(F)(F)F)n1)NCc1ccccn1	-0.1%	-0.4%	2.2	-0.3%
CN1CCN(c2ccc([N+](=O)[O-])cc2C(=O)N2CCOCC2)CC1	-1.4%	-0.8%	-6.3	-7.3%
Cc1noc(C(=O)NCc2ccccc2)c1Cl	4.7%	0.7%	1.7	15.3%
COC(=O)c1cc(NC(=O)C23CCC(C)(C(=O)O2)C3(C)C)cc(C(=O)OC)c1 (stereo unspecified)	2.0%	-2.1%	-2.1	-9.8%
COCCCNC(=O)/C(C#N)=C/c1ccc(OCC(=O)O)c(OC)c1	-2.5%	-0.7%	-12.1	8.1%
Cc1cccn2c(=O)c(C=O)c(N3CCN(c4ccccc4)CC3)nc12	6.2%	-19.6%	-17.9	23.6%
Cc1ccc(NC(=O)COC(=O)c2cc(-c3cccs3)nn2-c2ccccc2)cc1[N+](=O)[O-]	-0.8%	-4.1%	4.3	10.9%
OCC[C@@H]1NCc2cc(CO)cc(-c3ccccc3)c21	-5.3%	·	·	-7.7%
CCC(C)(C(=O)NC1CCCCC1)N(C(=O)CC1NC(=O)NC1=O)c1c(C)n(C)n(-c2ccccc2)c1=O (stereo unspecified)	?	0.2%	3.5	-2.6%
C#CCSc1nnc(-c2sc3ccccc3c2Cl)o1	-3.6%	-50.9%	-0.7	4.6%
O=C(O)CNC(=S)N(Cc1ccccc1F)C1CCCCC1	-0.1%	1.2%	-24.8[21.1 µM]	-14.3%
O=C(O)C1CCCN(S(=O)(=O)c2cccc3cccnc23)C1 (stereo unspecified)	-1.2%	-7.1%	5.4	-3.3%
NC(=O)CN1CCCN(S(=O)(=O)c2ccc(Br)cc2)CC1	-0.6%	-5.1%	-4.2	8.6%
O=C(Cn1cccn1)c1ccccc1	0.0%	-0.2%	-2.7	-8.6%

# Carrying on:
Compound	Rango complex inh	miR-21 reporter	GLA inh pH 4.5	Rango dissoc inh
CCN(/N=C/c1ccc(Cl)cc1)c1cc(=O)n(C)c(=O)[nH]1	?	-4.7%	0.0	0.2%
CCSc1nnc(NC(=O)c2cc(C)on2)s1	3.2%	-17.6%	5.6	1.6%
CCCNC(=O)c1cccc(Cn2nc(C)c(Br)c2C)c1	-2.2%	-1.1%	-6.9	11.9%
Cn1cnc2c1c(=O)n(Cc1c(Cl)cccc1Cl)c(=O)n2C	-3.8%	-4.2%	-1.4	10.3%
CN(C)CCC(=O)c1ccc2c(c1)OCO2	-3.6%	-13.8%	-5.0	18.0%
COc1ccc(-c2[nH]ncc2/C=C(/C#N)C(=O)NC2CCCCCC2)cc1	-3.9%	16.9%	-2.9	15.5%
O=C(CSc1ccc([N+](=O)[O-])cn1)Nc1cc(C(F)(F)F)ccc1N1CCOCC1	0.7%	6.1%	·	0.0%
O=C(CN1CCN(Cc2ccccc2F)C1=O)NCCN1CCOCC1	-1.3%	-2.7%	3.7	-18.6%
Cc1ccc(NC(=O)CSc2nnc(-c3ccco3)c(-c3ccco3)n2)cc1	?	10.4%	-8.6	0.5%
Oc1[nH]c2ccccc2c1N=Nc1ccccn1	-1.3%	·	·	-9.8%
CC(=O)N=Cc1c(C)c(C#N)c(=O)n(C)c1O	?	-7.0%	-4.8[21.1 µM]	-3.8%
NC(=O)CC(NC(=O)Cc1ccc(Br)cc1)c1ccc(N2CCN(c3ccc(F)cc3)CC2)c([N+](=O)[O-])c1 (stereo unspecified)	-1.5%	7.9%	6.7	-8.9%
CCCc1cc(=O)oc2cc(OCC(=O)NCCCN3CCCC3=O)ccc12	-0.7%	-1.3%	·	22.1%
Cc1c(CN2CCCCC2)c(O)n(CCCO)c(=O)c1C#N	0.8%	-0.4%	4.0	3.5%
COc1cc(CNC(C)(C)CO)ccc1OCC(=O)NC(C)(C)C	0.5%	-7.5%	-16.2	2.0%
CCCc1cc(=O)n2[nH]c(C)c(-c3ccc(Cl)cc3)c2n1	-3.2%	28.8%	·	1.1%
COc1cccc(OCc2cc(/C=N/NC(=O)c3nc(Cl)c(Cl)c(N)c3Cl)ccc2OC)c1	-1.8%	-4.8%	3.4	7.9%
Cn1c(SCC(=O)N2CCN(S(=O)(=O)c3ccc(Cl)cc3)CC2)nc2ccccc21	0.2%	8.7%	-5.8	-5.0%
Cc1ccc(OCCCC(=O)N2CCN(S(=O)(=O)c3cccc(F)c3)CC2)cc1	-0.4%	·	·	7.2%
O=C(OCC(=O)N(C1CCCCC1)C1CCCCC1)c1ccncc1	-0.5%	-0.1%	4.1	-9.7%
Cc1ccc(C(c2nnnn2Cc2ccccc2)N2CCN(Cc3ccccc3)CC2)cc1 (stereo unspecified)	1.8%	-7.9%	-8.0	3.7%
CC(=O)Nc1ccc(NC(=O)c2cccc(-c3cc4ccccc4oc3=O)c2)cc1	0.1%	-25.6%	-12.2	17.1%
Cc1ccc2cc(CN(CCCN3CCOCC3)C(c3nnnn3Cc3ccco3)C(C)C)c(=O)[nH]c2c1C (stereo unspecified)	?	·	·	-22.3%
COc1ccc(C2=CSC(/N=C/c3ccc(F)cc3)=NN2)cc1	-0.7%	-12.7%	3.9	-1.3%
O=C1[C@@H]2[C@@H]3C[C@@H]([C@H]4ON=C(c5ccc(OCc6ccccc6)cc5)[C@@H]34)[C@@H]2C(=O)N1c1ccc2c(c1)OCO2	-2.5%	1.1%	-3.0	3.8%

# (listing goes on)
Compound	Rango complex inh	miR-21 reporter	GLA inh pH 4.5	Rango dissoc inh
CC(C)(C)S(=O)N1Cc2cn(Cc3ccccc3)c(=O)cc2[C@H]1CCO (stereo partly specified)	-3.0%	·	·	-12.4%
O=C(COC(=O)c1ccc(Br)cc1)Nc1ccccc1Br	2.9%	6.0%	4.1	11.6%
Cc1nn(CC(=O)Nc2ccc(S(N)(=O)=O)cc2)c(=O)c2ccccc12	4.5%	-0.6%	·	-5.9%
NC(=O)NC(=O)COC(=O)c1ccc(Cl)c(S(=O)(=O)N(Cc2ccccc2)c2ccc(Cl)cc2)c1	2.1%	13.9%	-4.6	8.1%
COc1ccc(C(=O)Nc2cc3c4c(c2)CC(=O)N4CCC3)c(OC)c1	-0.9%	·	·	-1.3%
CCOC(=O)C(Cc1ccccc1)(Cc1ccccc1)C(C)=O	-1.2%	-4.1%	·	0.5%
Cc1ccc(S(=O)(=O)N2CCC(C(=O)Nc3ncccc3O)CC2)cc1	1.0%	·	·	-8.3%
CCN(C[C@H]1N[C@@](Cc2ccccc2)(C(=O)OC)[C@H]2C(=O)N(Cc3ccccc3)C(=O)[C@@H]12)S(=O)(=O)c1ccc(OC)cc1	-0.1%	·	·	0.2%
COc1ccc(CNS(=O)(=O)c2ccc(OC)cc2)cc1	0.9%	-4.0%	8.8	3.4%
C[C@H](CO)N1C[C@H](C)[C@@H](CN(C)C(=O)NC2CCCCC2)Oc2ccc(NC(=O)NC3CCCCC3)cc2C1=O	-1.5%	·	·	20.4%
CCCc1[nH]nc2c1C(c1ccc(OCCN3CCOCC3)c(OC)c1)C(C#N)=C(N)O2 (stereo unspecified)	4.6%	-34.0%	-0.1	-9.3%
c1ccc(Oc2nc(N3CCOCC3)nc(N3CCOCC3)n2)cc1	1.1%	-2.5%	7.2	18.9%
Nc1nc(SCC(=O)NCC2CCCO2)[nH]c(=O)c1NC(=O)c1ccco1 (stereo unspecified)	1.8%	-0.4%	4.1	17.4%
CN(Cc1ccccc1)S(=O)(=O)c1ccc(Cl)c(C(=O)N2CCC2)c1	-0.2%	·	·	25.8%
O=[N+]([O-])c1ccc(Nc2ccccn2)c([N+](=O)[O-])c1	0.2%	2.1%	-4.5	0.5%
CC(C)(C)/C(O)=C/c1nc2ccccc2[nH]c1=O	?	-24.4%	-6.4	?
CC(C)=CCC/C(C)=C/CNC(=O)CC1C[C@H](C(=O)N2CCOCC2)[C@@]2(C)c3[nH]c4ccccc4c3CCN2C1=O (stereo partly specified)	1.7%	·	·	9.0%
N#Cc1cnc(N)c(Br)c1	-1.5%	7.7%	-22.3	8.6%
CCNC(=S)Nc1cc(C)ccn1	1.5%	-17.5%	-4.7	-2.2%
COc1ccc(NC(=S)NCc2cccs2)c(OC)c1	0.1%	-6.7%	-3.2	0.1%
CN1CCN(NC(=O)c2ccccc2F)CC1	-1.8%	1.9%	-1.6	0.3%
Cc1nnc(SCC(=O)NNC(=O)c2ccc(Cl)cc2)s1	-2.3%	-2.0%	·	22.0%
COC(=O)c1ccccc1NC(=O)N1CCN(c2ccccc2F)CC1	-0.2%	0.0%	5.4	-4.4%
CN(C)c1ccc(/C=N/NC(=O)c2ccccc2O)o1	0.2%	2.8%	0.0	0.1%
CCc1cn(S(=O)(=O)c2ccccc2OC)nc1N	-2.7%	-12.9%	-2.2	17.5%

# The list continues:
Compound	Rango complex inh	miR-21 reporter	GLA inh pH 4.5	Rango dissoc inh
Cc1ccc(-n2c(C)cc(C(=O)OCC(=O)N3CCOCC3)c2C)cc1	-3.5%	·	·	-14.2%
CCOC(=O)c1ccc(N=c2sc(C(=O)OC)cc(=O)n2CCCN2CCOCC2)cc1	2.7%&-1.4%	22.3%&6.0%	-7.7&2.5	9.1%&-16.7%
COc1ccc(C(=O)OCC(=O)NCC2CCCO2)cc1 (stereo unspecified)	4.5%	0.4%	-9.2	-0.2%
Cc1ccn2c(C(=O)CSc3ccc(Cl)cc3)c(C)nc2c1	-3.6%	-7.2%	4.0	-6.4%
CCOc1ccc(NC(=O)Cn2c(=O)oc3ccccc32)cc1	2.6%	-12.5%	-7.3	38.8%
Cc1ccc(Cn2c(SC3CCOC3=O)nc3ccccc3c2=O)cc1 (stereo unspecified)	-6.9%	-4.1%	-5.7	10.0%
Cc1cccc(C)c1NC(=O)C1CCCN1S(=O)(=O)c1ccc(-c2ccc(=O)[nH]n2)s1 (stereo unspecified)	-0.6%	-7.7%	·	-9.6%
O=C(COC(=O)c1ccc([N+](=O)[O-])o1)c1ccccc1	2.8%	11.3%	3.8	23.4%
COc1ccc(CCNC(=O)Cn2cnc3c(nnn3Cc3ccc(C)cc3)c2=O)cc1OC	0.6%	-3.6%	-1.7	-13.0%
COc1cccc(N2C(=O)c3ccncc3C2=O)c1	-0.9%	-10.9%	-2.5	1.8%
Nc1nc(NC(=O)CCCC(=O)O)nn1-c1ccccc1	-0.4%	-2.0%	-5.3	3.1%
